# VACV Venus inh: inhibitors of vaccinia virus (Venus reporter); Vaccinia virus Venus reporter expression, fluorescence; Potency, µM (highest dose often 36.5 µM), inactives show at the highest dose activity change, negative = inhibition, actives largely listed as inhibitors; hit rate 0.46% among 330,000; active means well fitted inhibition curve with a large enough effect; inconclusive means small, poorly fitted or top-dose-only effect; inactive means no such curve, though single readings can be large or run the other way; tested in A549 cells; note: nearly all actives have a fitted effect of over 30% in size; inactives centre near -10
# Vaccinia mCherry: vaccinia inhibition (mCherry reporter). Vaccinia virus mCherry reporter infection, fluorescence; about a quarter of the inactives have no number. Potency, µM (top dose mostly 36.5 µM), for the others: top-dose activity change, negative = inhibition, usual class: inhibitors. hit rate 0.63% among 310,000. AID 720579; active = well fitted inhibition curve with a large enough effect; inconclusive = small, poorly fitted or top-dose-only effect; inactive = no such curve, though single readings can be large or run the other way; tested in A549 cells; note: nearly all actives have a fitted effect of over 35% in size; inactives centre near -10
# * hit, by the source's call; i = inactive; ? = inconclusive; nt = no result given; & = joins results of further samples; [ ] = remark or other dose. % is set by controls: 0 for no effect and ±100 for the full control effect; potency is the fitted concentration of half-maximal effect. Compounds were not picked by outcome (roughly 0.87% active in at least one column).
molecule | VACV Venus inh | Vaccinia mCherry
Brc1csc(/C=N/Nc2nc3ccccc3s2)c1 | -27% | -1%
COc1ccc(-c2noc(-c3cc(-c4ccc(F)cc4)n[nH]3)n2)cc1 | -10% | -6%
COc1ccc2cc(C(=O)Nc3ccc(O)cc3)sc(=O)c2c1OC | -15% | -3%
COc1ccccc1CNC(=O)/C=C/c1ccc(S(=O)(=O)NCc2ccco2)cc1 | ? | -9%
S=C(NCc1cccc(Cl)c1)NC1CCCCC1 | -20% | i
O=C(NCc1ccccn1)c1cccn1-c1ncc(C(F)(F)F)cc1Cl | 0% | -5%
COc1cc2c(cc1OC)C(COc1ccc3c(C)cc(=O)oc3c1)N(C(=O)Cc1ccc(F)cc1)CC2 (configuration not stated) | 0% | 7%
Cc1ccc(NC(=O)c2cc(-c3ccccc3)nn2-c2ccccc2)cc1 | -18% | -7%

# The last 4 entries of the section above come first, to join the parts.
molecule | VACV Venus inh | Vaccinia mCherry
S=C(NCc1cccc(Cl)c1)NC1CCCCC1 | -20% | i
O=C(NCc1ccccn1)c1cccn1-c1ncc(C(F)(F)F)cc1Cl | 0% | -5%
COc1cc2c(cc1OC)C(COc1ccc3c(C)cc(=O)oc3c1)N(C(=O)Cc1ccc(F)cc1)CC2 (configuration not stated) | 0% | 7%
Cc1ccc(NC(=O)c2cc(-c3ccccc3)nn2-c2ccccc2)cc1 | -18% | -7%
N=c1c(S(=O)(=O)c2ccccc2)cc2c(=O)n3ccccc3nc2n1C1CCCCC1 | -5% | -29%
O=C(CN1CCN(S(=O)(=O)c2ccccc2)CC1)N1CCCCC1 | -5% | -12%
COC(=O)C1CCN(CC(=O)Nc2ccc3c(c2)OCCO3)CC1 | -16% | i
Cc1ccc(/C=C/c2nnc(-c3cccs3)o2)cc1 | -9% | -13%
C[C@]12c3[nH]c4ccc(Cl)cc4c3CCN1C(=O)[C@@H](CC(=O)NCC13CC4CC(CC(C4)C1)C3)C[C@@H]2C(=O)N1CCCCC1 | ? | 28µM*
COc1ccc(/C=N\NC(=O)c2cc(OCC(F)(F)F)ccc2OCC(F)(F)F)cc1 | -28% | -21%
CSc1ccccc1C(=O)N(CC1CCCO1)c1c(N)n(Cc2ccccc2)c(=O)[nH]c1=O (configuration not stated) | -20% | i
CCOc1ccc(NC(=O)c2cn(C3CCCCC3)c(=O)c3c2c2ccccc2n3C)cc1 | -3% | -6%
CC(C)N(C(=O)[C@H]1C[C@H](CC(=O)NCCC2=CCCCC2)C(=O)N2CCc3c([nH]c4cc(-c5ccco5)ccc34)[C@]12C)C(C)C | 11µM* | 10µM*
CCc1ccc(N2CC(C(=O)N/N=C/c3ccccc3)CC2=O)cc1 (configuration not stated) | -19% | i
C=CCn1c(Sc2ncc([N+](=O)[O-])s2)n[nH]c1=O | 0% | -14%
O=C(NC1CCCC1)c1ccc(CN2CCOCC2)cc1 | 4% | -4%
CC(C)CC(=O)NC(Nc1ccccc1F)C(Cl)(Cl)Cl (configuration not stated) | -11% | -4%
CCOC(=O)c1ccc(NC(=O)COc2ccccc2CNC2CCCC2)cc1 | ? | i
CC(C)(C)NS(=O)(=O)c1ccc(NC(=O)C2CCCCC2)cc1 | -22% | i
Cc1nn(-c2nc3ccccc3s2)c(C)c1Oc1ccccc1O | -12% | ?
O=C(CCCN1C(=O)c2ccccc2C1=O)Nc1sc2c(c1C(=O)NCc1ccco1)CCC2 | -7% | -14%
Cn1c2ccccc2c(=O)c2ccc(C#Cc3ccc(N)cc3)cc21 | ? | ?
CCC(CC)=NNc1cccc([N+](=O)[O-])c1 | -4% | -17%
O=C(NCc1ccncc1)c1ccc(NS(=O)(=O)c2ccccc2)cc1 | -3% | i
CCC(C)(C)C(=O)Nc1cc([N+](=O)[O-])ccc1Cl | 7% | -6%
COc1ccc(C(C)(C)C)cc1NC(=O)c1c(C)noc1C | -7% | -12%
Cc1ccc(O)c(NC(=O)c2cc(-c3ccccc3Cl)on2)c1 | -24% | -6%
COC(=O)C(C(C)C)N1CCc2c(C)nc3c(C#N)cnn3c21 (configuration not stated) | -15% | i
CCOC(=O)Cc1nnc(NC(=O)Nc2ccccc2)s1 | -17% | nt
O=C(COc1ccc(-c2nnco2)cc1)Nc1ccc(F)c(Cl)c1 | 6% | -12%
CCNC(=O)C1(C)CCN(C(=O)c2cccc(C#N)c2)C1 (configuration not stated) | -6% | 7%
Cc1cc(C(=O)NC2CCCCC2)c(C)o1 | -1% | -12%
CCOC(=O)N1CCN(S(=O)(=O)c2ccc(C(=O)N(CCCN(C)C)c3nc4c(F)cc(F)cc4s3)cc2)CC1 | -9% | i
O=C(Nc1ccc(C(F)(F)F)cc1[N+](=O)[O-])O[C@H]1[C@H](Cc2ccccc2)NS(=O)(=O)[C@H]2C[C@@H]3C=C[C@]12O3 | ? | ?
Cc1ccc(-c2ccc3nnc(SCC(N)=O)n3n2)cc1 | ? | ?
CCc1nnc2c(NCc3ccccc3OC)nc3ccccc3n12 | -6% | i
Cc1cc(C)c(C2=NOC3C4CCC(C4)C23)c(C)c1 (configuration not stated) | -9% | -26%
CCc1ccc(-c2nc(SCC(=O)NCC3CCCO3)c(-c3ccc(F)cc3)[nH]2)cc1 (configuration not stated) | -16% | -21%
CCOC(=O)C1C2C=CC3(CN(C4CCCC4)C(=O)C13)O2 (configuration not stated) | 7% | -8%
CC1(C)CC[C@]2(C(=O)O)CC[C@]3(C)C(=CCC4[C@@]5(C)CC[C@H](O)C(C)(C)C5CC[C@]43C)C2C1 (some centres not stated) | -17% | -11%
COC(=O)c1ccc2cc(C)cc(C)c2n1 | 8% | 21%
C=CCN1C(=O)/C(=C2/Sc3ccccc3N2CC)SC1=S | 8% | i
Nc1nc(SCC(=O)Nc2ccc(Br)cc2F)n[nH]1 | -9% | -22%
c1ccc(CCNc2ccc3c(c2)Cc2ccccc2-3)nc1 | 27% | ?
COc1cccc(NC(=O)CN2C(=O)c3cccnc3Oc3ccc(Cl)cc32)c1 | -5%&-13% | -14%
CN1C2CCC1CC(NC(=O)c1ccc(Cl)cc1)C2 (configuration not stated) | -1%[7.34 µM] | i[7.34 µM]
Cc1cc(C)n2c(NC3CCCC3)c(-c3ccc(F)cc3)nc2n1 | 5% | 27%
O=C(CSc1ccc2nnc(CCNC(=O)c3ccccc3)n2n1)Nc1ccc(F)cc1F | -12% | i
O=C(N/N=C/c1cccc(NC(=O)c2ccc(Cl)cc2)c1)c1cccc(O)c1 | -8% | i
COc1ccccc1N(C)S(=O)(=O)c1ccc(Cl)c(C(=O)NCc2ccco2)c1 | 0% | -13%
COc1ccc(N(CC(=O)O)S(=O)(=O)c2ccc(C)cc2)cc1Cl | -13% | -13%
CC(O)(c1ccc(F)c(F)c1)c1nc(-c2ccccc2)cs1 (configuration not stated) | -20% | 17%

# Some of the entries so far, field by field:
> Cc1ccc(/C=C/c2nnc(-c3cccs3)o2)cc1
  VACV Venus inh: -9% | Vaccinia mCherry: -13%
> C[C@]12c3[nH]c4ccc(Cl)cc4c3CCN1C(=O)[C@@H](CC(=O)NCC13CC4CC(CC(C4)C1)C3)C[C@@H]2C(=O)N1CCCCC1
  VACV Venus inh: ? | Vaccinia mCherry: 28µM*

# Additional entries.
molecule | VACV Venus inh | Vaccinia mCherry
CCCCN1CCN=C1Nc1ccccc1 | -1% | i
Cc1cc2ccccc2n1CCNC(=O)C1CCCCC1 | -15% | -20%
Cc1ccc(-c2csc(NC(=O)CN3CCC(C(N)=O)CC3)n2)cc1 | ? | -18%
COCCNC(=S)Nc1ccc([N+](=O)[O-])cc1C | -12% | -13%
COc1ccc(OC)c(CNC(=O)c2cc3c(Cl)nc4ccccc4c3s2)c1 | -15% | -8%
CCOc1ccc(-n2cc(C(=O)Nc3ccccc3OCC)c3cc(OC)c(OC)cc3c2=O)cc1 | -11% | -9%
O=C(c1ccc2c(c1)OCO2)N1CCN(c2ncccn2)CC1 | -10% | -9%
O=C(COc1ccccc1F)N1CCN(Cc2cc(=O)n3nc(-c4ccccc4Cl)sc3n2)CC1 | -16% | i
CCOC(=O)c1cc2cc(OC)ccc2n1C1CCN(C)CC1 | -27% | -11%
CN1CCN(C(=O)c2cnn(-c3ccccc3)c2NC(=O)c2ccccc2Br)CC1 | 3% | 7%
CC(C)[C@H](NC(=O)c1ccco1)C(=O)OCC(=O)Nc1ccc(Cl)c(S(=O)(=O)N(C)C)c1 | -12% | i
Cc1cnc(C(=O)N2CCCC(N3CCN(c4ccccc4F)CC3)C2)cn1 (configuration not stated) | -10% | -11%
Cc1cccc(C(=O)N2CCC(=O)N([C@H](COCc3ccccc3)Cc3ccccc3)CC2)c1 | -7% | 15%
COc1cccc(COC(=O)C2CC(=O)N(Cc3ccccc3)C2)c1OC (configuration not stated) | -4% | i
COc1cc(SC)ccc1C(=O)Nc1ccc2ncccc2c1 | -21% | -27%
Nc1c(C(=O)c2ccccc2)sc2c1c(=O)[nH]c(=O)n2-c1ccccc1 | -15% | -11%
CCOC(=O)c1cc2c(=O)n3ccccc3nc2n(Cc2ccco2)c1=NC(=O)c1cccnc1 | -11% | -14%
Cc1nc(NC(=O)c2ccc(F)cc2)sc1C(=O)Nc1ccc2c(c1)CCC2 | -17% | -14%
N#C/C(=C\c1ccncc1)c1ccccn1 | -24% | -26%
Cc1c(C(=O)Nc2cc(F)ccc2F)sc2nc3n(c(=O)c12)CCCCC3 | -14% | -9%
Cc1ccnc(NS(=O)(=O)Cc2ccccc2)c1 | -10% | i
COc1ccccc1OCC(=O)OCC(=O)Nc1sccc1C(N)=O | -9% | -13%
Cc1ccc(/C=c2/sc3nnc(-c4ccccc4Cl)n3c2=O)o1 | -4% | -12%
CCc1ccc(OCC(=O)N2CCc3ccccc32)cc1 | 2% | -3%
CC(c1ccon1)N(C)C(=O)c1cnn(-c2ncc3c(n2)-c2ccccc2CC3)c1C1CC1 (configuration not stated) | -23% | -20%
Cc1ccccc1-n1c(SCC(=O)N/N=C/c2sccc2C)nc2ccccc2c1=O | -8% | -16%
O=C(c1ccccc1Cc1ccccc1)N1CCN(S(=O)(=O)c2ccccc2)CC1 | -9% | i
COCCNC(=O)C1(C)Cc2c(-c3ccc(N(C)C)cc3)ccnc2O1 (configuration not stated) | -18% | i
Nc1nc2[nH]c(=O)c(=O)[nH]c2c(=O)[nH]1 | -1% | -5%
COc1ccccc1NC(C)=O | -15% | -14%
CC(=O)NC(=O)Nc1sc(=S)n(C)c1C | 4% | -19%
CCOC(=O)c1c(CN2CCN(c3ccccc3)CC2)oc2ccc(O)cc12 | -21% | ?
CCOc1cc2c(cc1O)C(=NO)CC1C2CCC2(C)C(O)CCC12 (configuration not stated) | ? | ?
Cc1nnc(NC(=O)c2oc3c(ccc4ccccc43)c2C)s1 | -6% | -4%
COc1cccc(S(=O)(=O)Nc2ccc(C(O)(C(F)(F)F)C(F)(F)F)cc2)c1 | -7% | i
Cc1nc2ccc(NC(=O)N3CCC(c4ccccc4)C3)cc2nc1C (configuration not stated) | -22% | nt
CCS(=O)(=O)CCSP(=O)(OC)OC | ? | ?
COc1cccc(OC)c1C(=O)N1CCN(S(=O)(=O)c2ccccc2)CC1 | -11% | -18%
CCOC(=O)c1c(S(=O)(=O)N2CCC(C(=O)N3CCN(c4cccc(C)c4C)CC3)CC2)c(C)n(C)c1C | ? | ?
Cc1cc(N2CC34C=CC(O3)C(C(=O)O)C4C2=O)no1 (configuration not stated) | 0% | -12%
CCC1COCCS(=O)(=O)N1Cc1ccc(C)cc1 (configuration not stated) | -7%&-15% | i
CC(C)CCN1C(=O)N(c2ccccc2)C(=O)C1CC(=O)Nc1ccc(Cl)cc1 (configuration not stated) | -4% | -7%
COc1ccc(CN2CCN(C(=O)CC(C)C)CC2)c(OC)c1OC | 5% | nt
CCOC(=O)c1cccc(NC(=O)CC2C(=O)N(c3ccc(Cl)cc3)C(=O)N2C2CCCC2)c1 (configuration not stated) | -11% | -6%
CCOC(=O)C1CCN(S(=O)(=O)c2ccc(OC)c(Cl)c2Cl)CC1 | -4% | -18%
CCCNC(=O)Cn1nc(C(F)(F)F)cc1C | 2% | i
Cc1cc(C(=O)NCCN2CCCCC2C)n(-c2ccccc2)n1 (configuration not stated) | -12% | -13%
Cc1cccc(/C=C/c2nc3ccccc3c(=O)n2Cc2ccccc2)c1 | -27% | i
Clc1ccccc1Cn1nnc2c(N3CCCC3)ncnc21 | -3% | -2%
COc1ccc(-c2cc(C(=O)Nc3cccnc3)no2)cc1OC | -18%&-2% | 5%
NC1=C([N+](=O)[O-])C(c2ccc(F)cc2)C2=C(CCCC2=O)O1 (configuration not stated) | -21% | 0%
C=CCNC(=S)N1CCN(c2ncc(C(F)(F)F)cc2Cl)CC1 | 12% | 6%
CC(C)(CO)CNC(=O)CCc1nnc(Cc2ccc(-c3ccccc3)cc2)o1 | -8% | -7%
Cc1ccc(NC(=O)c2ccc3c(c2)NC(=O)CS3)nc1 | 0% | -13%
Cc1ccc(-n2c(Cl)c(Cl)[nH]c(=O)c2=O)cc1 | -2% | i
CC#CCN1c2ccccc2[C@]23C[C@@H](C(=O)OC)N(C(=O)c4cc(C)oc4C)C2=NC(C(=O)OC)=C(C(=O)OC)[C@H]13 | ? | -3%
Cc1ccc(S(=O)(=O)CC(=O)Nc2nccs2)cc1 | -10% | -2%
COc1ccc(NC(=O)CN2CCCCCC2)cc1OC | -6% | -6%
Cc1sc2ncnc(N/N=C/c3cccc(O)c3)c2c1C | -23% | -5%

# Screening data: PubChem, National Center for Advancing Translational Sciences (NCATS)
